Screening data deposited in PubChem BioAssay by ICCB-Longwood Screening Facility, Harvard Medical School.
BmaI1 enzyme: BmaI1 acyl-homoserine lactone synthase inhibition – biochemical, fluorescence intensity, with counterscreen (AID 720554). BmaI1 enzyme assay, fluorescence intensity; stronger effect = higher value; test concentration not given here; a few actives read low; strong numbers were not always called active. 0.4% of 12,000 active. inhibition, %;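 active means both replicates within 2 robust z-scores of the inhibited control and a quiet counterscreen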;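 further: 0% = uninhibited enzyme and 100% = inhibited control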
BmaI1 enzyme counterscreen: second read-out of BmaI1 enzyme, no call of its own (marks repeat the call); inhibition, %; measured here: counterscreen; design of the counterscreen not given here;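 first of two replicates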
Starred values were filed as active, the others as inactive.

item	Structure	BmaI1 enzyme counterscreen	BmaI1 enzyme
1	Cc1nn(CC(C)C)c(Cl)c1C(=O)NCC1COc2ccccc2O1 (configuration not stated)	-2	7
2	Cn1c(=NC(=O)CN2C(=O)C3CC=CCC3C2=O)sc2ccccc21 (configuration not stated)	1	10
3	CN=C(N)NCCC[C@H](N)C(=O)O	4	8
4	O=C(NC1CCC(O)CC1)c1ccc(S(=O)(=O)N2CCCc3ccccc32)cc1 (configuration not stated)	6	11
5	CN(Cc1cccs1)Cc1nc2scc(-c3ccccc3)c2c(=O)n1CC#N	12	18
6	COc1ccccc1C(=O)Nc1sccc1C(N)=O	-4	23
7	C=CCn1c(SC(C)C#N)nc2cc(Cl)ccc2c1=O (configuration not stated)	18	16
8	O=C(O)C1=Cc2ccccc2OC1	4	-12
9	Cc1nc(C)c(C(=O)N/N=C/c2ccc(N(C)C)cc2)s1	33	30
10	COCC(C)n1c(C)cc(C(=O)COC(=O)c2ccc3ncsc3c2)c1C (configuration not stated)	6	7
11	CC1CC(C)CN(S(=O)(=O)c2ccc(C(=O)NCc3ccccn3)cc2)C1 (configuration not stated)	-8	4
12	[O-][n+]1ccccc1OCc1ccc(Cl)cc1	7	15
13	CCN(CC)C(=O)CSc1ccc(S(=O)(=O)N2CCN(C)CC2)cn1	12	4
14	FC(F)Oc1ccc(C2N=C(c3ccccc3)NO2)cc1 (configuration not stated)	22	52
15	CC1(C)Oc2ccccc2OC1(O)c1ccc2ccccc2n1 (configuration not stated)	-2	-4
16	O=C(Cc1cccs1)Nc1nnc(C2CC2)s1	3	16
17	FC(F)(F)c1cnc(NNC(=S)NCC2CCCO2)c(Cl)c1 (configuration not stated)	-1	52
18	Cn1c(/N=C(\C#N)c2nc3ccccc3[nH]2)c(N)c(=O)n(C)c1=O	4	4
19	CN(C)Cc1nc2ccccc2c(=O)n1CC#N	-6	-8
20	Cn1nc(C(=O)NCCSc2n[nH]c(=O)[nH]c2=O)c2ccccc2c1=O	4	-2
21	CC(Nc1ccccc1)C(=O)Nc1ccc(F)cc1 (configuration not stated)	0	6
22	CCOC(=O)C1CCN(C(=O)COC(=O)c2ccc(Br)cc2)CC1	-2	2
23	COc1cc(C(=O)OCC(=O)N2CCCC2=O)cc(OC)c1C	13	14
24	CCn1cc(C(=O)N2CCC(C(=O)OC)CC2)c(=O)c2ccc(C)nc21	-3	2
25	Nn1c(SCCN2C(=O)c3ccccc3C2=O)nnc1-c1ccccc1Br	2	20

Along the list, from the results shown.
BmaI1 enzyme counterscreen, nos. 9 to 17: 33, 6, -8, 7, 12, 22, -2, 3, -1

The listing continues.
item	Structure	BmaI1 enzyme counterscreen	BmaI1 enzyme
26	CN(C(=O)CS)c1nc2c3ccccc3ncn2n1	18	42
27	COC(CN=Cc1c(O)n(C)c(=O)n(C)c1=O)OC	6	2
28	CCOc1ccc(CN(C)CC(O)COc2cccc(Br)c2)cc1 (configuration not stated)	-9	-12
29	c1csc(-c2nc(NC3CC3)c3ccccc3n2)c1	4	8
30	CCOC(=O)Nc1ccc2c(Cn3nnc(-c4ccc(Cl)cc4)n3)cc(=O)oc2c1	20	21
31	CN(C1CCCCC1)S(=O)(=O)c1cccc(C(=O)Nc2ccc3c(c2)OCCO3)c1	8	10
32	CCN(CC)c1ccc2c(c1)OC(=O)N(c1ccc(Cl)c(Cl)c1)P2(=O)N1CCOCC1 (configuration not stated)	-1	6
33	CCCC(=O)C1C(=O)CC(C)(C)C(c2cc(C)no2)C1=O (configuration not stated)	0	-1
34	CC(C)(CNC(=O)c1n[nH]c2ccccc12)N1CCCCC1	10	10
35	CN(C(=O)/C=C/C(=O)O)C1CCCCC1	-6	-8
36	Cc1nnc(SCC(=O)NCC2CCCCC2)n(N)c1=O	-4	4
37	C/C(=N\NC(=O)c1ccc(Cl)cc1Cl)c1ccc(C)o1	0	8
38	Cc1ccc(NC(=O)CSCc2c(C#N)c(C)nn2-c2ccccc2)c(Cl)c1	5	14
39	Cc1ccc2cccc(OCC(=O)N3C(C)CCCC3C)c2n1 (configuration not stated)	11	30
40	O=C(NC1CCCC1)c1ccc2ncsc2c1	-2	10
41	O=C(O)c1ccc(OCc2cn3ccccc3n2)cc1	2	12
42	Cc1cc(C(=O)Cn2nnc(-c3cccc(F)c3)n2)c(C)n1C1CCS(=O)(=O)C1 (configuration not stated)	2	12
43	CCCn1c(Sc2nnnn2-c2ccccc2)nc2ccccc2c1=O	2	10
44	O=C(CCN1C(=O)NC2(CCCC2)C1=O)Nc1nc(-c2ccccc2)cs1	4	12
45	Cc1ccccc1/C=N/NC(=O)c1ccc(-n2cnnn2)cc1	10	6
46	Nc1nc(N)nc(CN2CCCC2c2nc3ccccc3s2)n1 (configuration not stated)	-6	10
47	CCC(CC)NCC(=O)Nc1cc2oc3ccccc3c2cc1OC	2	12
48	CCOC(=O)C1=C(C)Nc2ccccc2N=C1NC(=O)CCNC(=O)c1ccco1	12	18
49	COc1ccc(C(=O)OCC(=O)NC2(C#N)CCCC2)cc1F	16	16
50	NC(=O)C1CN(C(=O)CN2CSCC2=O)c2ccccc2O1 (configuration not stated)	2	13

Quoted from the listing:
CN(C(=O)/C=C/C(=O)O)C1CCCCC1 in BmaI1 enzyme counterscreen: -6
C=CCn1c(SC(C)C#N)nc2cc(Cl)ccc2c1=O (configuration not stated) in BmaI1 enzyme counterscreen: 18
COCC(C)n1c(C)cc(C(=O)COC(=O)c2ccc3ncsc3c2)c1C (configuration not stated) in BmaI1 enzyme counterscreen: 6
Cc1ccc(NC(=O)CSCc2c(C#N)c(C)nn2-c2ccccc2)c(Cl)c1 in BmaI1 enzyme: 14
CCOC(=O)C1CCN(C(=O)COC(=O)c2ccc(Br)cc2)CC1 in BmaI1 enzyme: 2

Other entries.
item	Structure	BmaI1 enzyme counterscreen	BmaI1 enzyme
51	CCOC(=O)Nc1ccc2c(COC(=O)c3nc4nc(C)ccn4n3)cc(=O)oc2c1	10	6
52	Cc1cc(NC(=O)COC(=O)C(C)N2C(=O)C3CC=CCC3C2=O)no1 (configuration not stated)	2	14
53	O=C(O)CNC(=O)c1ccc2ccccc2c1	4	9
54	CC(OC(=O)c1ccc(Oc2ccccc2)cc1)C(N)=O (configuration not stated)	18	26
55	N#CCC(=O)Nc1ccc(C(=O)OCC(=O)N(Cc2ccccc2)C2CCS(=O)(=O)C2)cc1 (configuration not stated)	-6	-6
56	Cc1[nH]c(=O)[nH]c1C	8	8
57	CCOC(=O)C1CCCN(C(=O)CSc2ccc(NC(C)=O)cc2)C1 (configuration not stated)	2	17
58	NC(=O)c1ccc(NC(=O)COc2ccc(F)cc2Cl)cc1	8	6
59	Cc1onc(-c2ccccc2)c1C(=O)Nc1sccc1C#N	2	2
60	Nn1cc(-c2ccccc2)nc1SCC(=O)Nc1cccc2nsnc12	5	21
61	Cc1noc(C)c1CSCC(=O)Nc1nc(SCc2ccc(Cl)cc2)n[nH]1	18	16
62	O=c1cc(CSc2nnc(COc3ccc(Cl)cc3)n2Cc2ccco2)nc2ccc(Br)cn12	7	10
63	CC(=O)Oc1cc2c(C(=O)N3CCOCC3)c(C)oc2c2ccccc12	32	104
64	Cc1cc(C(=O)NCC2COc3ccccc3O2)no1 (configuration not stated)	-2	6
65	O=C1CCC2(C(=O)O)N1c1ccccc1C(=O)N2C1CC1 (configuration not stated)	6	18
66	COc1ccc(NC(=O)CSCc2ccccc2)cn1	10	6
67	O=C(COC(=O)Cc1cccc(C(F)(F)F)c1)Nc1ccc2[nH]c(=O)[nH]c2c1	23	20
68	NC(=O)NC1(C(F)(F)F)Oc2ccccc2O1	10	24
69	N#CCC(=O)Nc1ccc(C(=O)OCC(=O)N2CCN(c3ccccc3)CC2)cc1	4	8
70	O=C(COC(=O)c1cncc(Br)c1)Nc1ccc(N2CCCCC2)cc1	-10	12
71	O=C(COC(=O)C1CCN(C(=O)c2ccc(Cl)cc2)CC1)Nc1cccc2nsnc12	10	16
72	COc1ccc(F)cc1C(O)CSCc1ccccc1 (configuration not stated)	7	14
73	CCOC(=O)c1[nH]c(COC(=O)CCc2ccccc2)c(C(=O)OCC)c1C	12	9
74	Cc1cc(SCC(=O)NC(C)(C#N)C(C)C)nc2ccccc12 (configuration not stated)	-2	10
75	CC1Sc2ccc(C(=O)O)cc2NC1=O (configuration not stated)	3	6
76	COc1cc(C(=O)OC(C)C#N)cc(Br)c1O (configuration not stated)	39	18
77	COc1ccc(C(CN(C)C)C2(O)CCCCC2)cc1 (configuration not stated)	-8	-4
78	CCCCC1=NC2(CCCC2)C(=O)N1Cc1ccc(-c2ccccc2-c2nn[nH]n2)cc1	8	12
79	O=C(/C=c1/[nH]c(=O)/c(=C/c2cccc(C(F)(F)F)c2)s1)c1ccco1	2	15
80	CCOC(=O)c1c(NC(=O)c2ccc(Cl)cc2Cl)n[nH]c1N	23	24
81	Cc1c(N=C2C(=O)N(C(C)C)c3ccccc32)c(=O)n(-c2ccccc2)n1C	24	48
82	CCCCc1nc2ccccc2n1CC(=O)Nc1sc2c(c1C(N)=O)CCCC2	16	68
83	CSCCC(C(=O)N1CCN(S(=O)(=O)c2ccccc2C#N)CC1)N1C(=O)c2ccccc2C1=O (configuration not stated)	-2	-6
84	CSc1ccccc1NC(=O)CN(C)CN1C(=O)C2CC=CCC2C1=O (configuration not stated)	7	10
85	OCc1ccc2ccccc2n1	-7	42
86	COC(=O)C(Cc1ccccc1)NC(=O)c1cccc(S(=O)(=O)N(C)C)c1 (configuration not stated)	-2	3
87	CC1CN(C(=O)Cn2nc(C(=O)O)c3ccccc3c2=O)CC(C)O1 (configuration not stated)	16	16
88	O=C(CNS(=O)(=O)c1ccccc1F)OCc1nc2ccccc2s1	0	15
89	Nn1c(SCC(=O)c2ccc[nH]2)nnc1SCC(=O)c1ccc[nH]1	-2	7
90	CCN1CCN(C(=O)C(N)Cc2ccccc2)CC1 (configuration not stated)	-8	-4
91	CCNC(=S)N(C)Cc1cc(Br)ccc1OC	-2	-14
92	O=C(Cc1n[nH]c(=O)c2ccccc12)N1CCc2ccccc2C1	2	6
93	CC(=O)NC(CC(=O)Nc1ccc2c(c1)OCO2)c1ccccc1 (configuration not stated)	6	16
94	CCCCC[C@H](O)/C=C/[C@H]1[C@H](O)CC(=O)[C@@H]1CCCCCCC(=O)O	9	5
95	COc1ccc(Nc2ccc(S(=O)(=O)N3CCCC3)cn2)cc1O	28	82
96	O=C(CNc1ccc(Br)cc1F)NCc1ccco1	7	17
97	O=c1c(Cl)c(Cl)cnn1-c1ccc(C(F)(F)F)cn1	5	15
98	COC(=O)CCSc1ncnc2sc3c(c12)CCC3	-7	-2
99	Cc1ccc(NC(=O)CCc2c(C)[nH]c(=O)c(C#N)c2C)cc1	3	14
100	COC(=O)C(O)(c1ccc(N(C)C)cc1)C(F)(F)F (configuration not stated)	-1	0
101	O=c1[nH]c2ccccc2nc1N1CCOCC1	6	22

Complete entries as entered above. Order of values: BmaI1 enzyme counterscreen	BmaI1 enzyme
Shown for O=C(Cc1cccs1)Nc1nnc(C2CC2)s1 = 3	16
Shown for O=C(COC(=O)Cc1cccc(C(F)(F)F)c1)Nc1ccc2[nH]c(=O)[nH]c2c1 = 23	20

3 entries out of the list, sorted by heavy-atom count, low to high.
item	Structure	BmaI1 enzyme counterscreen	BmaI1 enzyme
90	CCN1CCN(C(=O)C(N)Cc2ccccc2)CC1 (configuration not stated)	-8	-4
93	CC(=O)NC(CC(=O)Nc1ccc2c(c1)OCO2)c1ccccc1 (configuration not stated)	6	16
78	CCCCC1=NC2(CCCC2)C(=O)N1Cc1ccc(-c2ccccc2-c2nn[nH]n2)cc1	8	12

These rows are one share of the data; count on the stated rates, not on these rows.
